Screening results as filed in PubChem.
S aureus helic: inhibitors of S. aureus replicative helicase, primary screen, biochemical, fluorescence unwinding readout. inhibition, %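 (tested at about 80 µM)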. 120,000 compounds, 0.05% hits. purified S. aureus helicase, fluorescence unwinding assay; about half of the hits fall short of the stated cut. replicative DNA helicase (DnaC/DnaB), Staphylococcus aureus;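 active means both duplicates at 50% or more, or one of them with a favoured structure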;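 further: 0% = mean of negative control wells and 100% = mean of positive control wells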
MgrA DNA FP: S. aureus MgrA activity modulators, primary screen, biochemical, S. aureus Newman, fluorescence polarization; MgrA-DNA binding; inhibition, %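 (about 10 µg/mL by stock and volumes)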; 84,000 compounds, 0.13% hits; AID 602314, 2012;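 active means above 50% in either of two replicates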;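 further: 0% = protein plus DNA without compound and 100% = DNA alone without protein; higher means less MgrA bound to DNA so lower polarization; one replicate is shown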
The depositor's hits bear a star; x = not tested or not shown. Some of the compounds tested, so the mix of outcomes need not match the whole.

Value order – S aureus helic | MgrA DNA FP
O=C(CSc1nc2ccc(N=Cc3ccccc3O)cc2s1)NCCOc1ccccc1
  -1.0 | 1.6
CCCCn1c(CCCN2C(=O)c3ccccc3C2=O)nc2ccccc2c1=O
  6.0 | -1.0
CSc1nc2ccc(NC(=O)c3ccccc3-n3cnnn3)cc2s1
  -24.0 | x
O=C(Nc1ccc(OCc2ccccc2)cc1)NC1Cc2ccccc2C1
  x | -1.4
Fc1cccc(F)c1-c1nnc(-c2ccccc2OC(F)(F)F)o1
  16.0 | x
Cc1ccc(C(=O)N2CCN(C(=O)c3ccccc3)C2)cc1
  7.0 | 0.1
N#CCc1nc2ccccc2s1
  x | -1.2
N#C/C(=C\c1cccnc1)C(N)=S
  -18.0 | x
Cc1nc(N)nc(C)c1Cc1ccccc1
  10.0 | 3.8
CC1CC(C)CN(S(=O)(=O)c2ccc3[nH]cc(C(=O)N4CCC5(CC4)OCCO5)c(=O)c3c2)C1 (stereo not drawn)
  7.0 | 0.6
COc1ccc(OC)c(NC(=O)C(CC(=O)O)Cc2ccc(C)cc2)c1 (stereo not drawn)
  4.0 | 0.4
CSc1cccc(NS(=O)(=O)c2ccc3c(c2)n(C)c(=O)c(=O)n3C)c1
  15.0 | 2.7
C=CCNC(=O)c1ccccc1SC
  4.0 | 5.7
CCC(C)NC(=O)CSC1=Nc2ccccc2C2=NC(c3ccccc3)C(=O)N12 (stereo not drawn)
  31.0 | x
CC(C)NC(=O)c1oc2ccccc2c1CSC1=NCCS1
  10.0 | x
COc1ccccc1C(=O)Nc1ccc(-c2csc(C)n2)cc1
  9.0 | x
CCNCC1Cc2ccccc2O1 (stereo not drawn)
  3.0 | 0.8
CC(=O)Nc1ccc(S(=O)(=O)NCc2ccc(C(=O)NC3CCCC(C)C3C)cc2)cc1 (stereo not drawn)
  13.0 | -0.6
O=C(CSc1nnc2ccccn12)NC(=O)NC1CCCC1
  -5.0 | x
Cc1[nH]c2ccccc2c1C(=O)CSc1nnc(N)s1
  10.0 | x
Cc1cc(C=C(C(N)=O)C(N)=O)c(C)cc1C=C(C(N)=O)C(N)=O
  -13.0 | x
N/C(=N\OC(=O)c1ccccc1F)c1ccccc1
  23.0 | x
O=C(Cc1c(Cl)cccc1Cl)NCCSc1n[nH]c(=O)[nH]c1=O
  -15.0 | x
C/C(=N\O)c1ccc2c(c1)CC(C)O2 (stereo not drawn)
  x | 0.3
CC(C)(C)NC(=O)NCc1ccncc1
  x | 0.1
Cc1cc2nc3s/c(=C/c4cc5c(cc4Br)OCO5)c(=O)n3c2cc1C
  x | 1.3
CC(C)(C)c1ccc(C(=O)N/N=C/c2cc(Cl)cc(Cl)c2O)cc1
  x | -0.2
N#Cc1ccsc1NC(=O)c1cc(Cl)sc1Cl
  20.0 | x
CN(C(=O)c1cccc(N2C(=O)C3C4C=CC(C4)C3C2=O)c1)C1CCCCC1 (stereo not drawn)
  4.0 | 1.6
CCn1c(-c2ccc3c(c2)OCCO3)cnc1SCC(=O)NC(=O)NCc1ccco1
  -15.0 | x
COCC(=O)NC1(c2nnnn2CCOC(=O)Nc2ccc(Cl)cc2)CCCCC1
  5.0 | x
CCc1ccc(NC(=O)Cn2ncc3c(=O)oc4ccccc4c32)cc1
  5.0 | 1.6
Cn1c(=O)c2c(SCCN3CCOCC3)nc(-c3ccccc3Cl)nc2n(C)c1=O
  13.0 | x
Nc1ncnc(Nc2ccc(F)cc2Br)n1
  x | -1.5
NC(=O)c1cnn2c(-c3ccc(Cl)cc3Cl)ccnc12
  x | -2.5
CCCn1nnc(NC(=S)NC(=O)c2ccc(-c3cc(Cl)ccc3Cl)o2)n1
  -13.0 | x
CN1/C(=C\C(=O)c2ccccc2)c2ccccc2CC1(C)C
  -1.0 | -0.7
O=C(O)CCC(=O)NCc1cccc(Oc2ccccc2)c1
  -6.0 | x
CSc1sc(C(=O)NN)c2c1C=CCC2
  x | -0.6
C=CCN(CC=C)C(=S)Nc1ccc2nsnc2c1
  8.0 | 3.0
O=C(NCCc1ccc(O)cc1)c1ccc2ccccc2c1
  -1.0 | -1.6
O=C(O)c1cccc2[nH]c3c(c12)CCCC3
  8.0 | 0.6
S=c1[nH]nc(NCc2cccs2)s1
  x | 4.1
O=C(NC1Cc2ccccc2C1)c1ccc(Cl)cc1
  x | -2.7
CN1CCN(c2ccccc2C=C(C(=O)O)C(=O)O)CC1
  -18.0 | x
O=C(CSc1nccn1-c1ccccc1)Nc1nccs1
  15.0 | x
COc1ccc(CNC(=O)Cn2c(=S)[nH]c3ccccc3c2=O)cc1
  6.0 | 0.7
CC(=O)N1N=C(c2ccc(C)cc2)OC1c1cccnc1 (stereo not drawn)
  -26.0 | x
COC(=O)Cn1cc(C#N)c2ccccc21
  -8.0 | -2.5
CCOc1ncccc1C(=O)NCCc1c[nH]c2ccccc12
  -9.0 | x

One compound at a time, as listed above:
O=C(CSc1nccn1-c1ccccc1)Nc1nccs1 across the screens: S aureus helic = 15.0; MgrA DNA FP = x
O=C(NC1Cc2ccccc2C1)c1ccc(Cl)cc1 across the screens: S aureus helic = x; MgrA DNA FP = -2.7

Remaining list, next part
Value order – S aureus helic | MgrA DNA FP
CC(C)(C)c1ccc(S(=O)(=O)Nc2ccc3[nH]c(=O)[nH]c3c2)cc1
  -14.0 | 1.3
CC1(C)CC(=O)c2cc(NC(=O)c3ccccc3)c(=O)oc2C1
  10.0 | 0.1
CC1(C)CC2CC(C)(CN2C(=O)CSc2nnc(-c3cccs3)n2N)C1 (stereo not drawn)
  -6.0 | x
O=S(=O)(Cc1ccccc1Cl)Nc1nc2cc(Cl)ccc2o1
  10.0 | x
CCOC(=O)c1ccc(NC(=O)CCn2c(=O)sc3ccccc32)cc1
  18.0 | x
CCOC(=O)c1nnc(Cc2ccc(Cl)cc2)o1
  3.0 | x
CC(=O)Nc1cc(C(C)C)c(O)c(C(C)C)c1
  7.0 | -0.8
CSc1nn2ccc(-c3cccc(C(F)(F)F)c3)nc2c1C#N
  x | -2.6
CCN1/C(=C(/O)c2ccccc2)C(=O)c2ccccc2S1(=O)=O
  5.0 | 1.7
CCOC(=O)C1=C(CSc2nnc(C3CCCCC3)n2N)NC(=O)NC1c1ccccc1 (stereo not drawn)
  -4.0 | x

Next part.
smiles	S aureus helic	MgrA DNA FP
O=c1c2cccnc2n(Cc2ccc(F)cc2)c(=O)n1Cc1ccc(F)cc1	10.0	x
CCN(CC)S(=O)(=O)c1ccc(/C=C/C(=O)OCC(=O)N2CC(C)OC(C)C2)cc1 (stereo not drawn)	14.0	x
COc1ccccc1C(=O)NC1CCS(=O)(=O)C1 (stereo not drawn)	13.0	x
O=C1CC(C(=O)Nc2ccc(Cl)c(Cl)c2)NC(=NCc2ccco2)N1 (stereo not drawn)	2.0	1.4
Cc1ccc(NC(=O)CCn2c(=O)sc3ccccc32)cc1F	-28.0	x
CN(C)c1ccc(/C=N/OCC(=O)N(C)c2ccccc2)cc1	-2.0	x
O=C(Nc1cccc(S(=O)(=O)c2cccc(NC(=O)c3ccco3)c2)c1)c1ccco1	-15.0	0.7
CC1CCC(NC(=O)CCCn2c3ccccc3c3cn[nH]c(=O)c32)CC1 (stereo not drawn)	-9.0	x
N/C(Cc1ccc(Cl)cc1)=N\O	4.0	x
CCCc1ccc(OCCNC(=O)c2ccco2)cc1	16.0	-0.8
CCCC(=O)Nn1cnc2c(c1=O)C1(CCCC1)Cc1ccccc1-2	-15.0	0.1
CC1CN(C(=O)/C=C/c2ccco2)C(C)CN1C(=O)/C=C/c1ccco1 (stereo not drawn)	16.0	7.8
CCN1C(=O)c2ccc(C(=O)NCC(C)C)cc2C1=O	6.0	-2.0
CC(C)c1ccc2[nH]c(O)c(N=NC(=O)c3ccccc3O)c2c1	6.0	x
Cn1c(CNc2ccc(F)cc2)nc2ccccc21	-3.0	0.5
CCOC(=O)c1c(C)nn(C)c1C	x	2.0
CCc1ccc(Nc2nnc(Cc3ccc(OC)cc3)c(=O)[nH]2)cc1	1.0	x
c1ccc(CNCCSc2nnnn2-c2ccccc2)cc1	-2.0	x
COc1ccc2c(c1)C1(Nc3ccccc3-c3nc4ccccc4n31)C(=O)N2C (stereo not drawn)	16.0	-2.1
CC(C)CCNC(=O)C1CCN(c2nnc(-n3cccc3)s2)CC1	7.0	-0.7
CC(NC(=O)CSc1nc(N)cc(N)n1)C12CC3CC(CC(C3)C1)C2 (stereo not drawn)	18.0	x
O=C(Nc1ccccc1Cl)C1(c2ccccc2)CCOCC1	-7.0	-0.2
Cc1c(C)c(C)c(CSc2ccccn2)c(C)c1C	x	1.2
Cc1ccc(NNC(=S)NCC2CCCO2)c(C)c1 (stereo not drawn)	-5.0	x
Nc1ccc2c3c(cccc13)C(=O)C=C2	-127.0	x
COc1ccccc1CC1(C)NC(=O)N(CC(=O)c2ccc3c(c2)OCO3)C1=O (stereo not drawn)	3.0	x
CC1=C(C(=O)OCc2ccc3c(c2)OCO3)C(c2cccc([N+](=O)[O-])c2)NC(=O)N1 (stereo not drawn)	x	-0.7
NNC(=O)c1cccc(COc2ccc(C3SCCS3)cc2)c1	x	-2.4
COC(=O)c1sc(OC)cc1OC(=O)c1ccco1	x	0.2
FC(F)(F)c1ccc(NC(=S)N2CCn3cccc3C2c2cccs2)cc1 (stereo not drawn)	-4.0	1.3
Cc1ccc(NC(=O)NCCCN2CCC(N3CCCCC3)CC2)cc1C	22.0	x
CCS(=O)(=O)c1nc(S(=O)(=O)c2ccc(Cl)cc2)c(NCC2CCCO2)s1 (stereo not drawn)	16.0	x
COC(=O)C1CCN(C(=O)C2c3ccccc3Oc3ccccc32)CC1	24.0	x
CC1CCCCN1C(=O)c1ccc(N)cc1 (stereo not drawn)	-1.0	x
O=C(O)CCN1C(=O)/C(=C/c2ccco2)SC1=S	x	51.4*
OC(CNC1CCCC1)COc1ccc(OCC(O)CNC2CCCC2)cc1 (stereo not drawn)	18.0	0.7
O=C(Nc1ccc(Br)cc1)c1ccc2c3c(onc13)-c1ccccc1C2=O	3.0	2.5
C(=Nc1ccc2nc(-c3ccccc3)[nH]c2c1)c1ccccc1	-5.0	-2.8
CC1=CC(=C2C(=O)NC(=O)NC2=O)C=C(C)N1CCN1CCOCC1	-6.0	x
O=C1NC(=S)NC(=O)C1=Cc1cccc(O)c1Cl	7.0	7.6

Reformatted with each value named: part of the list above.
Molecule: CC1=CC(=C2C(=O)NC(=O)NC2=O)C=C(C)N1CCN1CCOCC1
  S aureus helic: -6.0
  MgrA DNA FP: x
Molecule: CC1CCCCN1C(=O)c1ccc(N)cc1 (stereo not drawn)
  S aureus helic: -1.0
  MgrA DNA FP: x
Molecule: C(=Nc1ccc2nc(-c3ccccc3)[nH]c2c1)c1ccccc1
  S aureus helic: -5.0
  MgrA DNA FP: -2.8
Molecule: O=C(O)CCN1C(=O)/C(=C/c2ccco2)SC1=S
  S aureus helic: x
  MgrA DNA FP: 51.4*

Carrying on:
smiles	S aureus helic	MgrA DNA FP
CC(C)CCNC(=O)C1CCN(Cc2cccc(OCc3ccccc3)c2)CC1	2.0	0.9
O=C(Nc1cc(Oc2ccc(F)cc2)cc(Oc2ccc(F)cc2)c1)c1sc2ccccc2c1Cl	x	-1.1
CN(C)c1nc(C(=O)Nc2ccccc2)nc(N(C)C)n1	4.0	x
CCOC(=O)C1=C(C)N=c2s/c(=C/c3ccc(OC(C)=O)cc3)c(=O)n2C1c1ccccc1Cl (stereo not drawn)	x	0.3
C/C(=C(/C#N)P(=NN=Nc1ccccc1)(N1CCOCC1)N1CCOCC1)N1CCCC1	26.0	x
CC1(C)CCC2=C(O1)c1ccccc1C(=O)C2=O	x	-1.4
CCOC(=O)c1c(NC(=O)c2cc(S(N)(=O)=O)c(Cl)cc2Cl)sc(C(=O)N(CC)CC)c1C	x	2.8
O=P1(c2ccccc2)C=Cn2c1cc1c2CCCC1 (stereo not drawn)	-11.0	x
O=S(=O)(c1ccc(-n2nnc3ccccc32)nc1)N1CCCCC1	7.0	x
CCNc1nc2n(c(=O)n1)CCN2CC	-2.0	-3.8
COc1ccc(Nc2cccc(Cl)c2)c(C(=O)O)c1	x	-0.1
Cc1ccc(CN(C)CC(=O)NC(C)C23CC4CC(CC(C4)C2)C3)o1 (stereo not drawn)	-9.0	x
Cc1csc(NC(=O)c2c(O)c3cccc4c3n(c2=O)CCC4)n1	-1.0	0.0
NC(N)=NS(=O)(=O)c1ccc(NC(=O)/C=C/C(=O)O)cc1	-5.0	0.6
O=C(COc1ccccc1)OCC(=O)c1ccc(O)cc1O	-7.0	x
O=C(CC1SC(=NCC2CCCO2)NC1=O)Nc1cccc2ccccc12 (stereo not drawn)	-11.0	x
CCc1nc(-c2ccccc2)c2ccccn12	3.0	x
O=C(NCc1csc2ccccc12)c1cc(F)cc2c1OCOC2	x	-0.8
O=C(COC(=O)c1ccccc1NCc1ccco1)c1ccc(Cl)cc1	x	0.1
CC(C)(C)NC(=O)NCc1n[nH]c(=O)c2ccccc12	14.0	x
COc1ccccc1N(C=O)/C=C1\Sc2ccccc2C1=O	x	10.1
